SARS PLpro yeast – SARS-CoV PLP inhibition in yeast; S. cerevisiae expressing SARS-CoV PLpro, growth rescue; control for the full effect not named in the record; Potency, µM (top dose mostly 32.9 µM), for inactives: top-dose activity, positive = growth rescue; 330,000 tested, 0.19% active; further: 0% is about no effect; nearly all actives have a fitted effect of over 55% in size; growth read by luminescence after 48 h
MARV entry inh – inhibitors of Marburg virus binding or cell entry. Marburg virus pseudotyped entry inhibition, cell reporter; control for the full effect not named in the record; about a third of the inactives were read at about 46 µM. Potency, µM (series often up to 37.8 µM), inactives show at the top dose activity change, negative = inhibition, hits mostly inhibitors. 300,000 tested, 1.8% active. AID 540276; active = well fitted inhibition curve with a large enough effect; inconclusive = small, poorly fitted or top-dose-only effect, or effect the other way; inactive = flat fitted curve, though single readings scatter; tested in HEK293 cells; about a fifth of its hits are not listed in these tables; further: on the % scale 0 is the no-effect control and ±100 the full control effect; luciferase read-out
Cruzain inh Det – cruzain (T. cruzi) inhibition with detergent; P25779; purified cruzain, Z-FR-AMC fluorescence, 0.01% Triton; Potency, µM, without a hit: max response, negative = inhibition, hits mostly inhibitors; 200,000 tested, 0.43% active; AID 1478; active means well fitted curve in the direction sought with a large enough effect; inconclusive means small, poorly fitted or top-dose-only effect, or another doubt; inactive means no such curve, though single readings can be large; an effect the other way counts as inactive or inconclusive;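 further: plate controls were neutral wells for no effect and buffer without enzyme for full effect; nearly all actives have a fitted effect of over 40% in size; top concentration of the series not given in the record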
Target sequence (P25779 123-467 limits assumed): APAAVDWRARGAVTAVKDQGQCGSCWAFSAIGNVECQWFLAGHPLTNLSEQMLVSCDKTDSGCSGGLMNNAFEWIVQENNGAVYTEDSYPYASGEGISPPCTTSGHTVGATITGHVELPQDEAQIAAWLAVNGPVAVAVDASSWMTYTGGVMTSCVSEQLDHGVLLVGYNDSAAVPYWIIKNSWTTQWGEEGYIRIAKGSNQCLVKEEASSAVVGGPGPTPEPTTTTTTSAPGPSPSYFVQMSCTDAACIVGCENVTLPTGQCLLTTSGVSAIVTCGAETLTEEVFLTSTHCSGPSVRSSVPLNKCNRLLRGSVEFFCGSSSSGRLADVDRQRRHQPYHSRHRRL
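Purified cruzain (1.5 nM final) was preincubated with compounds for 15 min at room temperature in 100 mM sodium acetate pH 5.5, 5 mM DTT, 0.01% Triton X-100. Reaction started with 2 uM Z-FR-AMC; AMC fluorescence change over 60 s gave activity.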
NS1 function inh – influenza NS1 inhibition; S. cerevisiae slowed by influenza A NS1, growth recovery by OD600; Potency, µM (titrated, usually from 46.1 µM), for inactives: at the top dose activity, positive = more growth; 270,000 tested, 0.4% active; AID 2326; further: actives are rising curves; nearly all actives have a fitted effect of over 50% in size
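Growth recovery, yeast-based: influenza A NS1 expressed in S. cerevisiae causes slow growth, and suppressors are detected by OD600. The parent strain without NS1 is used as positive control.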
RE007 growth inh – less growth of the S. pombe RE007 Vpr strain; S. pombe RE007 Vpr strain, BacTiter-Glo ATP luminescence, 24 h; control for the full effect not named in the record; Potency, µM (series often up to 92.2 µM), for inactives: top-dose activity change, negative = less growth; 360,000 tested, 0.21% active; active = well fitted falling curve with a large enough effect; inconclusive = small, poorly fitted or top-dose-only effect; inactive = no such curve, though single readings can be large or run the other way;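 further: on the % scale 0 is the no-effect control and ±100 the full control effect; nearly all actives have a fitted effect of over 50% in size; the assay follows cell death caused by Vpr and the record does not say whether a fall means rescue or toxicity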
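Fission yeast strain RE007, carrying one chromosomally integrated HIV-1 vpr copy, was seeded at OD 0.01 in PMG+AL medium with 23 nL pinned compound. After 24 h at 30 °C and 99% humidity, viability was read by BacTiter-Glo luminescence.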
StopGo reporter – lowers the luciferase signal of an FMDV 2A StopGo reporter. 410,000 tested, 1.2% active. Potency, µM (doses to about 57.9 µM), inactives show at the highest dose signal change, negative = less light. human cells with a luciferase reporter of 2A StopGo recoding; control for the full effect not named in the record; active = well fitted falling curve with a large enough effect; inconclusive = small, poorly fitted or top-dose-only effect; inactive = no such curve, though single readings can be large or run the other way; tested in HEK293T cells; further: on the % scale 0 is the no-effect control and ±100 the full control effect; nearly all actives have a fitted effect of over 45% in size; luciferase light after 4 h
Cruzain inh noDet – cruzain (T. cruzi) inhibition without detergent; P25779; purified cruzain, Z-FR-AMC fluorescence, no detergent; Potency, µM, inactives show max response, negative = inhibition, most hits filed as inhibitors; 200,000 tested, 2.3% active; active means well fitted curve in the direction sought with a large enough effect; inconclusive means small, poorly fitted or top-dose-only effect, or another doubt; inactive means no such curve, though single readings can be large; an effect the other way counts as inactive or inconclusive;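 further: plate controls were enzyme without inhibitor for no effect and buffer without enzyme for full effect; nearly all actives have a fitted effect of over 40% in size; top concentration of the series not given in the record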
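Detergent-free condition (0.00005% Triton X-100) in acetate buffer pH 5.5 with DTT. 1.5 nM enzyme and compound were pre-mixed 15 min, then 2 uM Z-FR-AMC substrate added; reaction progress from fluorescence change between first and third reads (60 s).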
Lassa entry inh – blocks Lassa virus binding to or entry into cells. Potency, µM (titrated, usually from 37.9 µM), for inactives: at the top dose activity change, negative = inhibition, most hits filed as inhibitors. AID 540256. 300,000 tested, 1.2% active. Lassa virus pseudotype entry inhibition, cell reporter; control for the full effect not named in the record; active means well fitted inhibition curve with a large enough effect; inconclusive means small, poorly fitted or top-dose-only effect, or effect the other way; inactive means flat fitted curve, though single readings scatter; tested in HEK293 cells; further: on the % scale 0 is the no-effect control and ±100 the full control effect; nearly all actives have a fitted effect of over 50% in size; luciferase read-out
* hit, by the source's call; u = inconclusive; x = no result given; [ ] = remark or other dose. Unless noted, the call rests on the fitted dose curve; in most records, active means well fitted rising curve with a large enough effect; inconclusive means small, poorly fitted or top-dose-only effect; inactive means no such curve, though single readings can be large or run the other way. Potency means the concentration at half of the fitted maximal effect.

SMILES	SARS PLpro yeast	MARV entry inh	Cruzain inh Det	NS1 function inh	RE007 growth inh	StopGo reporter	Cruzain inh noDet	Lassa entry inh
COc1ccccc1C=NN1C(=O)CSC1=S	x	21%	x	x	-7%	10%	x	7%[46.1 µM]
Cc1ccc2[nH]c(=O)c(CN(CCc3ccccc3)C(c3nnnn3Cc3ccco3)C(C)C)cc2c1 (stereo not drawn)	-1%	u	x	u	10%	u	x	7%
C/C=C(\C)CN1CCC(n2nccc2NC(=O)CCCc2ccccc2)CC1	3%	-3%	x	16%	5%	-21%	x	7%
CN=c1scc(C)n1/N=C/c1cc(Br)c(O)c(Br)c1	-6%	u	x	x	-7%	42%[activator]	x	-6%
S=C(c1ccc(-c2ccc(Br)cc2)o1)N1CCCCC1	-4%	8%	x	-56%	-14%	72%[activator]	x	-30%
Cc1oc(-c2cc(F)ccc2F)nc1CN1CCN(c2cnccn2)CC1	0%	0%[46.1 µM]	x	-8%	-24%	-6%	x	13%[46.1 µM]
CCOC(=O)c1ccc(N2C(=O)c3[nH]nc(-c4ccccc4)c3C2c2ccc(CC)cc2)cc1 (stereo not drawn)	x	u	-3.6%	x	x	u	13µM*	u
O=C(c1ccc2nc(N3CCCCC3)sc2c1)N1CCN(Cc2ccc3c(c2)OCO3)CC1	3%	0%	-5.6%	-65%	18%	-16%	9%	x
CN(C)C=NC(=O)c1cc2c(n(-c3ccccc3)c1=O)CC(C)(C)CC2=O	x	-2%[46.1 µM]	-6.7%	x	x	-13%	-4%	u
Fc1ccc(-n2ncc3c(Nc4ccc5c(c4)OCCO5)ncnc32)cc1	x	x	-12%	x	x	7%	-3%	10%[46.1 µM]
O=C(COC(=O)CC1CCCC1)Nc1ccc(Cl)cc1	0%	-14%[46.1 µM]	x	x	-21%	-7%	x	-4%
CCCC(=O)Nc1c(-c2cccs2)c(=O)c2ccccc2n1CC	2%	-4%	-1.0%	7%	x	x	-3%	x
COc1ccc(C(=O)NCc2cn3cccc(C)c3n2)cc1OC	-6%	x	3.0%	3%	-14%	0%	-10%	x
Cn1cc(CN2CCN(CCO)CC2)c(-c2ccc(Oc3ccccc3)cc2)n1	0%	-27%[46.1 µM]	x	6%	-11%	-9%	x	14%
O=C(NN1C(=O)/C(=C/C=C/c2ccccc2)SC1=S)c1ccncc1	5%	0%[46.1 µM]	x	x	-23%	-22%	x	-22%[46.1 µM]
CC1CC(C)CN(S(=O)(=O)N2CCCC(C(=O)NCCc3ccc(Cl)cc3)C2)C1 (stereo not drawn)	-4%	-7%[46.1 µM]	x	7%	3%	-11%	x	-16%[46.1 µM]
CCC(C)NS(=O)(=O)c1ccc(OCC(=O)NCc2ccc3c(c2)OCO3)cc1 (stereo not drawn)	2%	10%	2.2%	-14%	-3%	15%	5%	22%
Cc1cccc(C(C(=O)NC2CCCC2)N(C(=O)c2csnn2)C2CCCC2)c1 (stereo not drawn)	-1%	u	x	12%	6%	13%	x	0%[46.1 µM]
O=C(NCC(c1ccc2c(c1)OCO2)N1CCOCC1)C(=O)Nc1ccccc1 (stereo not drawn)	x	x	0.2%	x	x	5%	-4%	2%[46.1 µM]
C=CCN(C(=O)Cn1c(C(=O)OC)cc2oc(C)cc21)c1ccccc1	0%	-22%	-2.0%	-10%	-2%	x	8%	12%
CC(=O)N1CCCc2ccc(NS(=O)(=O)c3ccc(F)cc3F)cc21	x	x	-1.5%	x	x	-4%	8%	-8%[46.1 µM]
O=C(O)CC(Cn1cnnn1)c1ccccc1 (stereo not drawn)	6%	0%	6.1%	8.9µM*	2%	-24%	-7%	x
O=C(c1ccccc1)c1cc[n+]([O-])cc1	-3%	3%	-3.8%	4%	2%	1%	-8%	4%
CCCOc1ccc(NC(=O)CC2C(=O)N(CC)C(=S)N2CCNC(C)=O)cc1 (stereo not drawn)	-1%	16%	-0.4%	-14%	1%	-17%	17%	-2%
Cc1ccc(-n2c(SCC(=O)NC3CCCCC3)nc3c(c2=O)SCC3)cc1	7%	x	-9.0%	-25%	32%	-11%	-8%	x
COC(=O)c1sc2nc(N3CCCCC3)c3c(c2c1N)CCCC3	10%	-29%	-5.7%	4%	-24%	-22%	-6%	u
Cc1cc([N+](=O)[O-])ccc1NC(=O)C[n+]1ccc(N(C)C)cc1	1%	-23%[46.1 µM]	x	1%	u	-12%	x	-14%
CC(=O)c1nn(-c2ccccc2)cc1C(=O)c1ccc(C)cc1	x	-22%[46.1 µM]	x	x	20%	-10%	x	u
Cc1ccc(-n2ncc(C(=O)N3CCN(C(=O)c4ccco4)CC3)c2C2CCN(C(=O)OC(C)(C)C)CC2)cc1C	-1%	x	x	0%	-1%	-21%	x	x
COc1ccc(C2=C(C=Nc3c(C)n(C)n(-c4ccccc4)c3=O)C(c3ccccc3C)c3ccccc3O2)cc1OC (stereo not drawn)	2%	u	-5.3%	u	-21%	u	2%	u
Cc1ccc(S(=O)(=O)n2nc(-c3ccc(Cl)cc3)nc2NCc2ccc(F)cc2)cc1	x	-9%[46.1 µM]	-3.0%	x	x	-21%	8%	u
COc1cccc(CNC(=O)C(=O)NCC(c2ccc3c(c2)OCO3)N2CCOCC2)c1 (stereo not drawn)	x	x	-3.4%	x	x	-18%	-5%	7%[46.1 µM]
O=C(CNc1cccc2ccccc12)N/N=C/c1ccc(C(=O)O)cc1	14%	u	1.1%	10%	-14%	-11%	14%	2%
COc1ccc(S(=O)(=O)NCCSCc2cccs2)cc1	-11%	0%	-2.1%	-19%	3%	33%[activator]	-9%	12%
COc1ccccc1-c1nnc(SCC(=O)Nc2oc(C)c3c(C)n[nH]c(=O)c23)n1C	-2%	18%	x	x	-5%	1%	x	u
Cc1ccc(-c2nc(CN(C)C(C3CC3)C3CC3)c(C)o2)cc1	-2%	u	x	5%	-3%	10%	x	-1%
Cc1cccc(/C(N)=N/OC(=O)COc2ccc(Cl)c(C)c2)c1	-4%	-8%	-6.5%	18%	4%	-11%	-16%	5%
Cc1ccn2c(CN(C)CCn3nc(C)cc3C)c(C(=O)N3CCCCCC3)nc2c1	2%	x	x	1%	-10%	16%	x	x
O=C(c1cc(-c2cccc(Cl)c2)on1)N1CCOCC1	-7%	u	x	-10%	5%	65%[activator]	x	u
OC1CCCN(Cc2ccc3ccc4cccc5ccc2c3c45)C1 (stereo not drawn)	-2%	u	-6.8%	-35%	-7%	x	-3%	0%
COc1ccc2nc(Nc3ccccc3OC)sc2c1	-3%	u	x	x	u	-24%	x	u
C=CCNC(=S)N/N=C(\C)c1ccc(-n2ccnc2)cc1	5%	x	x	0%	-8%	-4%	x	x
COc1cc(OC)cc(C(=O)N2CCC(C(=O)N3CCOCC3)CC2)c1	-1%	-5%[46.1 µM]	x	3%	-10%	4%	x	x
COC(=O)c1sc2ccccc2c1-n1cccc1C(=O)C(=O)Nc1ccc(Cl)cc1	-7%	u	-6.1%	7%	-4%	0%	u	-6%
CC(C)(O)C#Cc1ccc(C(=O)N2CCN(c3ccc(F)cc3)CC2)cc1	-5%	24%[46.1 µM]	x	x	-1%	-21%	x	9%
COC(=O)C1CN(C(=O)COc2ccc(Cl)c(C)c2)c2ccccc2O1 (stereo not drawn)	-2%	u	x	-1%	-2%	-18%	x	1%[46.1 µM]
O=C(NNc1cccc(Cl)n1)c1ccccc1CC[N+](=O)[O-]	1%	-16%[46.1 µM]	x	x	-6%	0%	x	-23%
C=CCNC(=O)NC(=O)COC(=O)c1ccccc1Sc1ccc(C(F)(F)F)cc1[N+](=O)[O-]	0%	1%	-8.6%	-3%	-6%	u	-10%	-5%
O=C(c1ccccc1)c1ccc(OCCCN2CCCC2)cc1	3%	-17%	-2.6%	26%	13%	32%[activator]	7%	11%
COc1ccccc1-c1noc(-c2ccc(N3CCC(C)CC3)c([N+](=O)[O-])c2)n1	x	-24%[46.1 µM]	-2.7%	x	x	21%	-8%	8%[46.1 µM]
CCCOc1ccc(CNC(=O)c2[nH]c3cc(OC)ccc3c2Sc2ccccc2)cc1	x	7%[46.1 µM]	-7.7%	x	x	-15%	-28%	-1%[46.1 µM]
N#CC(=C(O)CN1CCN(c2ccccc2F)CC1)c1nc(-c2ccc(Cl)cc2)cs1	x	u	x	x	3%	-7%	x	-16%[46.1 µM]
CCOC(=O)c1c(C)[nH]c(C)c1S(=O)(=O)N(C)CC(=O)Nc1cccc(Cl)c1C	x	x	0.9%	x	x	-3%	4%	-2%[46.1 µM]
CNC(=O)c1c(NC(NC(=O)c2ccco2)C(=O)c2ccc(Cl)cc2)sc2c1CCCC2 (stereo not drawn)	-11%	u	-8.0%	3%	-8%	x	u	u
CC(=O)c1cc(Cl)ccc1OCC(=O)NC1CCCC1	0%	27%[46.1 µM]	x	x	-1%	-16%	x	-11%
Cc1ccc(C(=O)N2CCN(c3ccc([N+](=O)[O-])c(NCc4cccnc4)c3)CC2)cc1	-3%	u	u	-12%	5%	-12%	-8%	u
Brc1ccc(CN2CCNCC2)s1	1%	u	-0.9%	6%	-11%	u	-9%	-4%
COc1ccc(N(CC(=O)NCc2ccccc2OC)S(=O)(=O)c2c(C)nn(C)c2C)cc1	-3%	x	5.8%	-33%	15%	4%	u	x
COc1ccccc1CNC(=O)C(=O)NCC(c1cccs1)S(=O)(=O)c1cccs1 (stereo not drawn)	x	x	-1.8%	x	x	-28%	u	-18%[46.1 µM]
COc1ccc(C(=O)N2CCN(c3ccc(C(C)=O)cc3F)CC2)cc1S(=O)(=O)NC1CC1	1%	22%	x	x	-17%	33%[activator]	x	-10%
Cc1cc(=O)n2nc(N3CCC(C(=O)N4CCN(C)CC4)CC3)sc2n1	-1%	9%	-0.1%	0%	-10%	1%	0%	-4%
O=C(Cn1nnc(-c2ccccc2Cl)n1)NCc1ccc2c(c1)OCO2	-2%	u	2.9%	-3%	10%	0%	-3%	18%

Not a hit list (roughly 4.6% active in at least one column).
